# Rango dissoc inh – inhibitors of RanGTP-induced Rango-importin beta complex dissociation. O95149+P62826. Biochemical FRET Rango-importin beta, RanGTP-induced dissociation. Potency, µM (highest dose often 46.1 µM), inactives show top-dose activity change, negative = inhibition. 340,000 tested, 0.071% active. AID 540253; active means falling FRET ratio curve, often poorly fitted, with flat reads before Ran was added; inconclusive means other falling curves, or compound fluorescence or quenching; inactive means flat or rising ratio curve;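 note: potency is the fitted concentration of half-maximal effect; % of control where 0% means no effect; nearly all actives have a fitted effect of over 45% in size; -100% = wells without RanGTP and RCC1; the record marks most hits as doubtful in a second field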
#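 FRET read at 45 min, room temperature: inhibitors block the CFP/YFP signal rise when RanGTP (0.6 uM Ran, 2 mM GTP, 0.2 uM RCC1) frees Rango (0.1 uM) from importin beta (0.25 uM). Pre-read after 5 min compound exposure flags interference.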
# GLA inh pH 4.5 – inhibitors of human alpha-galactosidase A at pH 4.5 | P06280 | 230,000 tested, under 10 active | purified enzyme, 4-MU-alpha-Gal fluorescence, pH 4.5 | AID 1467 | activity change, negative = inhibition, % at 105 µM; inconclusive = small, poorly fitted or top-dose-only inhibition, or a rising curve; inactive = flat fitted curve, though single readings scatter; no compound was filed as active;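 note: 0% = full activity with enzyme and -100% = basal without enzyme; dose as in the result columns while the protocol names 77 µM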
# Target sequence (P06280 whole entry, looked up): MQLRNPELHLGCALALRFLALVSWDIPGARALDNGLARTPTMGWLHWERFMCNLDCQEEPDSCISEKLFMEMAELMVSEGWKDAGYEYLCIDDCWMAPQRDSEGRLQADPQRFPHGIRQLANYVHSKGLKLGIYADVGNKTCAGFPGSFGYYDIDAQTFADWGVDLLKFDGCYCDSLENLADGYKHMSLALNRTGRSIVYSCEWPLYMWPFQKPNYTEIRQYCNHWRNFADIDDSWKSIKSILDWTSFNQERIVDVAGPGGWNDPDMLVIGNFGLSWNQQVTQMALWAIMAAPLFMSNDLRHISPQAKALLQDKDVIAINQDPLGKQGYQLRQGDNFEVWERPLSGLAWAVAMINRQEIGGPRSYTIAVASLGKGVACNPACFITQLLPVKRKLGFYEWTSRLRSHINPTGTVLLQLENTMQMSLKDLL
# miR-21 FLuc – raises the signal of a miR-21 reporter; 340,000 tested, under 10 active; HeLa miR-21 FLuc reporter, luciferase, 48 h; Potency, µM (titrated, usually from 38.3 µM), without a hit: at the top dose reporter change, positive = more light; active = well fitted rising curve with a large enough effect; inconclusive = small, poorly fitted or top-dose-only effect; inactive = no such curve, though single readings can be large or run the other way;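 note: % of control where 0% means no effect; miR-21 action dims this reporter so a rising signal means less miR-21 action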
#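 HeLa cells endogenously expressing miR-21, stably carrying CMV-driven firefly luciferase with a downstream miR-21 binding site, 2000 cells/well. Titrations up to approximately 40 uM, 48 hours; luciferase luminescence read.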
# Rango-impB inh – Rango-importin beta binding inhibition; Q14974; Rango CFP/YFP FRET sensor + importin beta, 45 min; Potency, µM (highest dose often 92.2 µM), without a hit: at the top dose inhibition of complex formation; 340,000 tested, 0.031% active; active = rising FRET ratio curve, often small or poorly fitted; inconclusive = mostly compound fluorescence or quenching in the first reads; inactive = flat curves in all reads;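 note: potency is the fitted concentration of half-maximal effect; 0% = DMSO wells and 100% = buffer wells lacking importin beta; nearly all actives have a fitted effect of over 15% in size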
#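 FRET biosensor Rango (snurportin 1 IBB between N-terminal EYFP and C-terminal Cerulean), 50 nM in PBS/1 mM DTT/0.02% Tween-20/0.1% BSA, preincubated 5 min RT with compound; 0.125 microM importin beta added, 45 min RT, CFP/YFP FRET ratio read.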
# Active calls of the source: *; ? = inconclusive; · = not tested or not shown; & = joins results of further samples.
GLA inh pH 4.5 | miR-21 FLuc | Rango-impB inh | Rango dissoc inh | Compound
· | · | 5.1% | 0% | CC(=O)OC1CCC2(C)C(CCC3C2CC(=NO)C2(C)C(C(C)OC(C)=O)CCC32)C1 (stereo not given)
-1 | -4% | -1.0% | 2% | Cc1cccc2c(N)c3c(nc12)CCCC3 (tested in a mixture with another compound)
4 | 0% | -10% | -12% | CCN(C(=O)CSc1cc(C)c2ccccc2n1)c1c(N)n(Cc2ccccc2)c(=O)[nH]c1=O
11 | -12% | 0.0% | 6% | CCN(CC)CC#CCC(O)(c1ccccc1)C1CCCCC1 (stereo not given)
· | -20% | -0.5% | 16% | O=C(COc1ccc2c(c1)OCO2)Nc1nncs1
1 | -2% | 0.3% | -2% | N#CC(Nc1ccccc1)c1ccccc1OCc1ccccc1 (stereo not given)
7 | -9% | -4.0% | 0% | Cc1nc(NC(=O)c2ccccc2[N+](=O)[O-])sc1C(=O)N(C)C
0 | -3% | 1.1% | 2% | CC(C)C(c1nnnn1Cc1ccc2c(c1)OCO2)N1CCN(C)CC1 (stereo not given)
· | · | -2.1% | 10% | CCN(CC(=O)Nc1ccc2c(c1)OCCO2)C(=O)CN1C(=O)NC(C)(c2ccc(C)cc2)C1=O (stereo not given)
9 | 1% | 2.4% | -4% | O=c1[nH]c(Nc2ccc3c(c2)OCCO3)nnc1Cc1ccccc1
· | 26% | -2.0% | -4% | Fc1ccc(-[n+]2nc(Nc3ccccc3)sc2-c2c(Cl)cccc2Cl)cc1
4 | -3% | -5.0% | 5% | CCN(CC)C(=S)SCC(=O)Nc1ccc(S(N)(=O)=O)cc1

# Other compounds follow:
GLA inh pH 4.5 | miR-21 FLuc | Rango-impB inh | Rango dissoc inh | Compound
-1 | -1% | -0.8% | 8% | C#CCNC(=O)C1=C[C@@H](C2CC2)C[C@@H](OCc2ccc(CO)cc2)O1
21 | 1% | ? | ? | CCCOC(=O)C1=C(C)NC2=C(C(=O)CC(C)(C)C2)C1c1cccnc1 (stereo not given)
· | · | 3.3% | -5% | CCOP(=O)(OCC)C(C#N)=C1SCN(c2ccccc2)CS1
8 | -2% | -2.9% | -2% | O=C(C1=C[C@H](c2ccc3c(c2)OCO3)C[C@H](OCc2ccc(CO)cc2)O1)N1CCOCC1
· | -63% | 4.3% | 2% | O=C(OC1CCCCC1)c1cc2ccccc2oc1=O
· | · | -0.8% | -22% | Cc1ccc(C(=O)C(C)OC(=O)Cc2n[nH]c(=O)c3ccccc23)cc1 (stereo not given)
· | · | -1.0% | -11% | CC(NC(=O)c1ccco1)c1ccc(-n2ccnc2)cc1 (stereo not given)
· | 4% | -1.1% | 8% | CN1C(=O)C(C)(C)c2cc(S(=O)(=O)N3CCCC3C(=O)NCc3ccccc3Cl)ccc21 (stereo not given)
-8 | 3% | 8.4% | -3% | COc1cccc(C(C(=O)NC(C)(C)C)N(C(=O)CCC(=O)Nc2cc(C)on2)C(C)C)c1OC (stereo not given)
2 | -7% | -4.3% | 0% | CCC(C(=O)O/N=C(\N)c1cccc(C)c1)c1ccccc1 (stereo not given)
-3 | 0% | · | · | Cc1ccc(C2CC(=O)c3cnc(N4CC(C)CC(C)C4)nc3C2)cc1 (stereo not given)
· | -1% | -0.1% | 13% | O=C(O)CSCC(=O)N1CCN(c2ccnc3cc(Cl)ccc23)CC1

# Next entries:
GLA inh pH 4.5 | miR-21 FLuc | Rango-impB inh | Rango dissoc inh | Compound
4 | -17% | 5.2% | 0% | CC1CN(C(=O)COC(=O)c2ccc(N)c([N+](=O)[O-])c2)CC(C)O1 (stereo not given)
· | -22% | 2.9% | 4% | Cc1nnc(NC(=O)CSc2ccccc2N)s1
· | · | -3.1% | 5% | O=C(Nc1ccc(Cl)c(S(=O)(=O)N2CCOCC2)c1)c1cc2ccccc2oc1=O
· | 0%&-3% | -0.2% | -22% | O=C(O)c1ccc(Cn2cnc3cccnc32)cc1
· | · | -0.2% | 24% | Cn1c(=O)c2c(nc(Cl)n2CC(=O)NC2(C#N)CCCCC2)n(C)c1=O
· | 0%&3% | -3.3% | -6% | COc1ccc(N2CC(C(=O)NCCS(=O)(=O)N3CCN(c4ccccc4)CC3)CC2=O)cc1 (stereo not given)
· | 1% | 2.6% | -12% | C/C(=N/NC(=O)c1nnn(-c2nonc2N)c1-c1ccccc1)c1ccncc1
-14 | 4% | ? | -17% | COc1ccc(S(=O)(=O)Nc2cccc(C(C)=O)c2)cc1Br
6 | 0% | -0.1% | 9% | Cc1ccc(S(=O)(=O)Nc2ccccc2F)cc1C(=O)NCCCN1CCCC1=O
· | · | -1.2% | 0% | O=C1[C@H]2[C@@H](c3ccc(Cl)cc3)N3C(=O)N(c4cccc(F)c4)C(=O)[C@@]3(Cc3ccccc3)[C@H]2C(=O)N1C1CCCCC1
-13 | 21% | -2.4% | 13% | Cc1cc(C(C)(C)C)oc1C(=O)N(CC(=O)NC1CCCC1)c1c(C)cccc1C
· | -1% | 2.9% | 18% | COc1ccc(OCC(=O)NS(=O)(=O)c2ccccc2)cc1

# Next section:
GLA inh pH 4.5 | miR-21 FLuc | Rango-impB inh | Rango dissoc inh | Compound
-7 | -8% | -4.7% | 17% | Cc1ccccc1S(=O)(=O)Oc1ccccc1C(=O)Oc1ccccc1
-16 | 25% | -3.3% | -8% | Cc1cc(C(C)(C)C)oc1C(=O)N(CC(=O)NC1CCCC1)Cc1ccccc1Cl
7 | -38% | -4.3% | 10% | Cc1cc(N/C=C\C(=O)c2ccc(Cl)c(Cl)c2)no1
5 | 7% | -1.2% | 1% | FC(F)Sc1ccc(NC(=S)NCc2ccccc2)cc1
1 | 7% | -1.6% | 5% | O=S(=O)(c1ccccc1)c1cnn(-c2ccccc2)c1-c1ccc(F)cc1
· | 22% | ? | 11% | Cc1cccc(N2CCN(C(=O)c3cccc(N4CCCC4=O)c3)CC2)c1C
4 | 0% | ? | -4% | Cc1oc(-c2ccc(F)cc2)nc1CN(Cc1ccccn1)CC1CCCO1 (stereo not given)
0 | 0% | 0.6% | 1% | Cc1onc(-c2ccccc2Cl)c1C(=O)NCCCN1CCOCC1
· | 3% | 1.6% | -7% | Cc1cc(=O)[nH]c(N2CCCNCC2)n1
-19 | -2% | 2.5% | 19% | O=C(CCl)NN=C(c1ccccc1)c1ccccc1
-14 | 28% | 0.8% | 1% | O=C(NNC(=O)c1ccc([N+](=O)[O-])o1)c1ccccc1
-3 | 8% | -3.3% | 15% | COc1ccc(Br)cc1CN(C)C(=O)c1ccc2c(c1)NC(=O)C(C)S2 (stereo not given)

# Following part
GLA inh pH 4.5 | miR-21 FLuc | Rango-impB inh | Rango dissoc inh | Compound
-2 | -16% | ? | ? | Cc1cc(C)c2nc(N3CCCN(C(=O)c4ccco4)CC3)c(C#N)cc2c1
3 | -5% | -1.8% | 0% | COc1ccc(Cl)cc1C(=O)Nn1c(C)nc2ccccc2c1=O
1 | 17% | -0.5% | 2% | CCc1cccc(C)c1NC(=S)NCC1CCN(c2ccc(OC)cc2)C1 (stereo not given)
· | · | 3.5% | -7% | Cc1cc(CNC(=O)COC(=O)C2CC3CCCC(C2)C3=O)cc(C)c1O (stereo not given)
· | · | -2.8% | 0% | Cc1ccc(C(=O)NCC(=O)N2CCCN(S(=O)(=O)c3ccc(C)cc3)CC2)cc1
-26 | -6% | 0.6% | -12% | COc1ccc(S(=O)(=O)Cc2ccc(C(=O)NCc3ccccn3)o2)cc1
-17 | -54% | -0.5% | -5% | OCCc1ccc(-c2ccc(Cl)cc2)o1
6 | 0% | 0.6% | 19% | CC1CCN(C(=O)CSc2nc3c(cnn3-c3ccccc3)c(=O)[nH]2)CC1
· | · | -4.9% | -3% | CCOc1cc(N2CCOCC2)c(OCC)cc1NC(=O)CN1C(=O)NC(CC)(c2ccc(F)cc2)C1=O (stereo not given)
0 | 1% | 0.0% | 0% | O=C(CCC(=O)c1ccccc1)Nc1cccnc1
3 | 3% | 0.0% | 1% | C/C(=N\NC(=O)Cn1c(C)nc2ccccc21)c1cccs1
· | -5% | 2.5% | -7% | CCOC(=O)N1CCN(CCC(=O)Nc2ccccc2)CC1

# The listing continues:
GLA inh pH 4.5 | miR-21 FLuc | Rango-impB inh | Rango dissoc inh | Compound
2 | -10% | 0.3% | -3% | O=C(CN1CCOCC1)Nc1c(Cl)cc(Cl)cc1Cl
· | -2% | -0.8% | 4% | CCCCC(=O)Nc1c2c(nn1-c1cccc(C)c1C)CS(=O)(=O)C2
-6 | 1% | 1.5% | -7% | CCCCNC(=O)COC(=O)CCC(=O)c1ccc(F)cc1
-6 | 8% | ? | 17% | O=C(Cc1ccc(Cl)cc1)Nc1cccc(S(=O)(=O)Nc2ccccc2F)c1
-19 | 3% | 0.0% | 6% | Cc1ccccc1OCCSc1nnc(-c2cccnc2)n1N
-8 | ? | -2.4% | -9% | CCOC(=O)CS(=O)(=O)c1nc(-c2ccc(F)cc2)cc(C(F)(F)F)n1
4 | 3% | -2.9% | 0% | NC(=O)NCc1cccnc1
8 | -11% | 3.2% | -12% | CCC(C)c1ccc(OCC(=O)Nc2ccc3[nH]c(=O)[nH]c3c2)cc1 (stereo not given)
-20 | -5% | -1.8% | 9% | CCOC(=O)c1c(C)[nH]c(C(=O)COC(=O)C23CC4CC(CC(Cl)(C4)C2)C3)c1C
3 | -2% | 0.0% | 5% | Cn1c(-c2cccc(Br)c2)cnc1NCc1cccnc1
2 | -7% | -3.1% | 10% | O=C(NNS(=O)(=O)c1ccccc1)c1cccs1
-2 | -14% | 0.2% | -14% | COc1cc(/C=N/NC(=S)Nc2cccnc2)cc(OC)c1O

# Continued:
GLA inh pH 4.5 | miR-21 FLuc | Rango-impB inh | Rango dissoc inh | Compound
· | · | -3.3% | -9% | O=C(COc1cccc2c1CCNC2=O)Nc1cccc(C(F)(F)F)c1
· | · | -2.9% | -2% | Cc1c(C(=O)N2CCN(S(=O)(=O)c3ccc(F)cc3)CC2)oc2ccccc12
0 | -16% | -3.4% | 8% | O=C(Nc1cccc(F)c1)c1ccc(S(=O)(=O)N2CCCC2)cc1
· | · | -1.1% | -3% | COC(=O)c1c[nH]c(=S)n1Cc1ccccc1
· | -3% | 0.4% | -8% | CN=C1S/C(=C\c2ccc(OCC(=O)OC)c(OC)c2)C(=O)N1C
-1 | -4% | -2.0% | 19% | Nc1nc(-c2ccccc2)c(-c2ccccc2)s1
-7 | -24% | 1.6% | 10% | CC(=O)c1ccc(NC(=O)CO/N=C(\C)c2cccs2)cc1
· | 0% | -3.4% | 0% | CCCN(CC(=O)Nc1ccc(Cl)cc1Cl)C(=O)c1ccc(=O)[nH]c1
· | 2% | 1.0% | 12% | CC(CN1CCCCC1)NC(=O)c1cccs1 (stereo not given)
0 | -8% | 3.6% | 20% | Cc1ccc(S(=O)(=O)NC(C)(C)CSc2nnc(N)s2)cc1
· | · | 0.6% | -7% | CCS(=O)(=O)N1CCC2(CC1)OCCN2S(=O)(=O)c1ccc(C)cc1
0 | -37% | -3.2% | -1% | Cc1cc(N2CCOCC2)nc2ccc(NC(=O)CCC(=O)N3CCC(C)CC3)cc12
-6 | -9% | -0.7% | 6% | CN(c1ccc(C(=O)NCC2CCCO2)cc1)S(C)(=O)=O (stereo not given)
2 | -2% | -0.1% | 43% | Cc1cc(C(=O)Nc2ncn[nH]2)ccc1[N+](=O)[O-]

# From PubChem

# The list is partial; the hit share may differ from the screen's.
